Source: PubChem (Broad Institute)
DUX4 txn inh: DUX4-mediated transcription inhibition. 293T-iDUX4 ZSCAN4-Gaussia luciferase reporter, 24 h; hits give low values. activity change, negative = inhibition, % (no concentration beside the values). 0.8% of 37,000 active. AID 1224904;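 active = -10% or lower and over 25 points stronger than a control reporter; inconclusive = -10% or lower with a smaller gap; inactive = above -10%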;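 also: 0% = median of neutral control wells and -100% = median of positive control wells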
DUX4 txn inh difference: recorded beside DUX4 txn inh, whose call it bears; Gaussia minus Italica difference, %; measured here: selective DUX4 reporter inhibition;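 worked out from the two reporters; negative = selective loss of the DUX4 reporter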
DUX4 txn inh control: also measured in DUX4 txn inh; calls as there; activity change, negative = inhibition, %; measured here: Italica tet-on control reporter;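 0 = neutral control and -100 = positive control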
Numbers without * were called inactive; u = inconclusive; x = not tested or not shown. A portion of the library, so the mix of outcomes need not match the whole.

SMILES | DUX4 txn inh control | DUX4 txn inh difference | DUX4 txn inh
C[C@H]1CN([C@@H](C)CO)S(=O)(=O)c2ccc(-c3cncnc3)cc2O[C@H]1CN(C)C(=O)NC1CCCC1 | -1.6 | -4.6 | -6.2
O=C(C[C@H]1CC[C@@H]2[C@H](COC[C@@H](O)CN2Cc2ccc(Oc3ccccc3)cc2)O1)N1CCN(c2ccccc2)CC1 | x | x | u
N#Cc1cccc(-c2ccc3c(c2)[C@@H]2[C@@H](CCN2C(=O)c2ccccc2F)[C@H](CO)N3)c1 | x | x | u
C/C=C/c1ccc([C@H]2[C@@H](C#N)N(S(=O)(=O)c3cccc(F)c3)[C@H]2CO)cc1 | 0.8 | -2.6 | -1.9
COc1ccccc1NC(=O)N1CCCCN2[C@H](C1)[C@@H](c1ccc(-c3cccc(C#N)c3)cc1)[C@@H]2CO | x | x | u
CN(C)CC(=O)Nc1ccc2c(c1)[C@@H]1C[C@H](CC(=O)NCc3cc(F)ccc3F)O[C@H](CO)[C@@H]1O2 | -3.8 | 4.0 | 0.1
CCS(=O)(=O)N1CCC2(CC1)CN(Cc1ccccc1OC)[C@@H](CO)c1c2c2ccc(OC)cc2n1C | x | x | u
Cc1noc(C)c1S(=O)(=O)Nc1ccc2c(c1)C(=O)N([C@@H](C)CO)C[C@@H](C)[C@H](CN(C)C(=O)CCC(F)(F)F)OCCCC[C@H](C)O2 | -2.0 | 3.1 | 1.1
C[C@@H]1CN([C@@H](C)CO)C(=O)CCCn2cc(nn2)CO[C@H]1CN(C)Cc1ccc2c(c1)OCO2 | 5.2 | 0.2 | 5.4
C[C@H](O)C#Cc1cnc2c(c1)C(=O)N([C@H](C)CO)C[C@H](C)[C@@H](CN(C)C(=O)c1ccccc1F)O2 | -0.6 | 2.3 | 1.7
COc1cccc(-c2ccc3c(c2)[C@H]2[C@H](CCN2C(=O)Cc2ccccc2)[C@H](CO)N3)c1 | x | x | u
CC=Cc1ccc2n(c1=O)C[C@@H]1[C@@H](CO)[C@H](C(=O)NCc3ccccc3)N(C)[C@H]21 (mixture of isomers) | 2.7 | -8.3 | -5.6
CCNC(=O)C[C@H]1CC[C@@H]2[C@@H](COc3ccc(NC(=O)c4ccc5c(c4)OCO5)cc3C(=O)N2C)O1 | 3.7 | 0.9 | 4.6
CCCNC(=O)N1CC2(CCN(Cc3nccs3)CC2)c2c([nH]c3cc(OC)ccc23)[C@@H]1CO | -3.7 | 7.7 | 4.0
C[C@@H]1CCCCO[C@@H](CN(C)S(=O)(=O)c2ccc(Cl)cc2)[C@H](C)CN([C@@H](C)CO)C(=O)c2cc(NC(=O)Nc3ccc(C(F)(F)F)cc3)ccc2O1 | 7.9 | -5.1 | 2.8
CCCC#Cc1ccc([C@H]2[C@H](CO)N3C(=O)CN(C(=O)Nc4ccccc4)C[C@@H]23)cc1 | x | x | u
COc1cccc(CNC(=O)[C@H]2[C@H](CO)[C@H]3Cn4c(ccc(-c5cncnc5)c4=O)[C@H]3N2C)c1 | 6.2 | 2.4 | 8.6
O=C(c1cccc(F)c1)N1CCCCN2[C@H](C1)[C@@H](c1ccc(/C=C/c3ccccc3)cc1)[C@@H]2CO | -6.2* | -35.0* | -41.1*
CCCNC(=O)N1C[C@@H](O)COC[C@@H]2O[C@H](CC(=O)N3CCC(Cc4ccccc4)CC3)CC[C@H]21 | 4.2 | 0.8 | 4.9
O=C(N[C@@H]1C=C[C@H](CC(=O)N2CCOCC2)O[C@@H]1CO)c1ccccn1 | 1.4 | 6.3 | 7.6
C[C@@H]1CN([C@H](C)CO)C(=O)c2cccc(NS(=O)(=O)c3ccc(F)cc3)c2O[C@@H]1CN(C)Cc1ccc(Cl)c(Cl)c1 | -0.8 | -3.9 | -4.7
COC(=O)C[C@H]1C[C@H]2c3cc(NC(=O)C4CCOCC4)ccc3O[C@H]2[C@@H](CO)O1 | 2.9 | 3.1 | 6.0
COc1ccccc1S(=O)(=O)N(C)C[C@H]1OCc2ccccc2-c2c(n(C)c3ccccc23)C(=O)N([C@@H](C)CO)C[C@@H]1C | -3.9 | 1.3 | -2.6
CNC[C@@H]1Oc2ccc(NS(=O)(=O)c3c(C)noc3C)cc2CC(=O)N([C@@H](C)CO)C[C@H]1C | -3.3 | 1.6 | -1.7
CCC(=O)N1[C@H](C(=O)NCc2ccc(F)cc2)[C@@H](CO)[C@@H]2Cn3c(cccc3=O)[C@@H]21 | 1.5 | 4.0 | 5.6
O=C(C[C@H]1CC[C@@H]2[C@H](COC[C@@H](O)CN2C(=O)c2ccncc2)O1)NCc1ccc(-c2ccccc2)cc1 | -0.2 | 5.3 | 5.1
COc1ccccc1NC(=O)Nc1ccc2c(c1)OC[C@@H](C)N(Cc1ccccc1Cl)C[C@@H](C)[C@H](OC)CN(C)C2=O | x | x | u
C[C@H](CO)N1C[C@H](C)[C@@H](CN(C)C(=O)[C@@H]2CCCN2C)OCc2ccccc2-c2c(n(C)c3ccccc23)C1=O | -3.4 | 17.1 | 13.7
N#C[C@@H]1[C@H](c2ccc(-c3cccc(F)c3)cc2)[C@H](CO)N1C(=O)CN1CCOCC1 | -2.2 | 3.2 | 1.0
Cc1noc(C)c1NC(=O)N1C[C@@H](O)COC[C@@H]2O[C@@H](CC(=O)NCC3CC3)CC[C@H]21 | 4.4 | 0.3 | 4.7

Profiles, looked up by structure.
CCCNC(=O)N1C[C@@H](O)COC[C@@H]2O[C@H](CC(=O)N3CCC(Cc4ccccc4)CC3)CC[C@H]21 is listed with DUX4 txn inh control: 4.2; DUX4 txn inh difference: 0.8; DUX4 txn inh: 4.9
Cc1noc(C)c1NC(=O)N1C[C@@H](O)COC[C@@H]2O[C@@H](CC(=O)NCC3CC3)CC[C@H]21 is listed with DUX4 txn inh control: 4.4; DUX4 txn inh difference: 0.3; DUX4 txn inh: 4.7

The results go on.
SMILES | DUX4 txn inh control | DUX4 txn inh difference | DUX4 txn inh
O=C(C[C@H]1C[C@H]2c3cc(NC(=O)Nc4ccc(C(F)(F)F)cc4)ccc3O[C@H]2[C@H](CO)O1)NCc1cccnc1 | -1.9 | -1.8 | -3.7
C[C@@H]1CCCCO[C@H](CN(C)C(=O)Nc2cccc3ccccc23)[C@@H](C)CN([C@H](C)CO)C(=O)c2cc(N(C)C)ccc2O1 | 0.3 | 2.4 | 2.7
CC=Cc1ccc2n(c1=O)C[C@H]1[C@H](CO)[C@@H](C(=O)NC3CCC3)[C@@H]2N1S(=O)(=O)c1cn(C)cn1 (mixture of isomers) | -4.1 | 5.9 | 1.8
O=C(c1ccccn1)N1C[C@@H]2[C@H](c3ccccc31)[C@@H](CO)N2C(=O)Cc1ccccc1 | -3.8 | 4.6 | 0.9
CCCC#Cc1cnc2c(c1)C(=O)N([C@@H](C)CO)C[C@@H](C)[C@H](CN(C)C(=O)C1CCC1)O2 | 0.2 | 5.7 | 5.9
COCC(=O)Nc1ccc2c(c1)C(=O)N(C)[C@@H]1CC[C@@H](CC(=O)NC3Cc4ccccc4C3)O[C@H]1CO2 | 2.7 | -1.1 | 1.5
CN(C)C(=O)c1ccc(-c2ccc3c(c2)[C@@H]2[C@@H](CCN2C(=O)c2ccc4c(c2)OCO4)[C@H](CO)N3)cc1 | -12.1 | 9.2 | -2.9
O=S(=O)(c1ccccc1F)N1CC[C@@H]2[C@H]1c1cc(-c3ccccc3F)ccc1N[C@@H]2CO | 11.0 | 9.5 | 20.5
CNC[C@H]1Oc2c(NC(=O)CCC(F)(F)F)cccc2C(=O)N([C@H](C)CO)C[C@@H]1C | 1.9 | -2.1 | -0.2
O=C(C[C@@H]1CC[C@@H]2[C@H](COC[C@@H](O)CN2C(=O)Nc2ccc(F)cc2)O1)NCCc1ccccc1 | 2.9 | 0.0 | 2.9
COc1ccc([C@@H]2C/C=C\C[C@@H](c3ccc4c(c3)OCO4)NC(=O)CCC(=O)N2)c(OC)c1 | 1.9 | -2.5 | -0.5
O=C(CC1CC1)N1[C@@H](CO)[C@@H]2c3ccccc3N(S(=O)(=O)c3ccc(F)cc3)C[C@@H]21 | -1.3 | -5.0 | -6.2
CO[C@H]1CN(C)C(=O)c2cc(NC(C)=O)ccc2OC[C@H](C)N(C(=O)c2cccnc2)C[C@H]1C | -0.3 | 4.9 | 4.7
CNC[C@@H]1OCc2ccccc2-c2c(n(C)c3ccccc23)C(=O)N([C@H](C)CO)C[C@H]1C | -1.0 | 11.2 | 10.3
COCC(=O)N1[C@H](C#N)[C@H](c2ccccc2-c2cccc(F)c2)[C@H]1CO | 13.1 | 5.4 | 18.5
COCC(=O)Nc1ccc2c(c1)C(=O)N(C)[C@H]1CC[C@H](CC(=O)N3CCc4ccccc4C3)O[C@H]1CO2 | 0.8 | -2.0 | -1.2
CO[C@H]1CN(C)C(=O)c2ccc(NS(=O)(=O)c3ccc(C)cc3)cc2OC[C@H](C)N(Cc2nccs2)C[C@@H]1C | 2.1 | 2.4 | 4.4
C[C@H](CO)N1C[C@H](C)[C@H](CN(C)Cc2cccnc2)OCc2cnnn2CCCC1=O | -2.4 | 8.6 | 6.2
C[C@H](CO)N1C[C@H](C)[C@@H](CN(C)C(=O)CCCN(C)C)OCCCC[C@H](C)Oc2ccc(NS(=O)(=O)c3cn(C)cn3)cc2C1=O | 3.5 | -2.7 | 0.8
CCS(=O)(=O)N1CC2(C1)[C@@H](c1ccccc1)[C@@H](CO)N2Cc1ccc(F)cc1 | 0.0 | -8.5 | -8.5
N#C[C@@H]1[C@H](c2ccc(C#CCC3CCCC3)cc2)[C@@H](CO)N1C(=O)CN1CCOCC1 | 1.8 | -0.3 | 1.5
O=C(Cc1ccncc1)Nc1ccc2c(c1)[C@H]1C[C@@H](CC(=O)N3CCc4ccccc4C3)O[C@@H](CO)[C@H]1O2 | -3.8 | 4.2 | 0.4
C[C@@H]1CN([C@@H](C)CO)C(=O)CCCn2nncc2CO[C@@H]1CN(C)C(=O)c1cc(-c2ccccc2)on1 | -1.8 | 0.8 | -1.0
CO[C@H]1CC[C@@H]2CCN(C)C(=O)[C@H](C)[C@@H](OC)CN(C)C(=O)c3cc(C#N)ccc3OC[C@H]1O2 | 1.0 | -2.2 | -1.2
O=C(Nc1cccc(F)c1)N1C[C@@H]2[C@H](c3ccccc31)[C@@H](CO)N2C(=O)Cc1ccccn1 | 4.4 | -6.5 | -2.1
CC=Cc1ccc2n(c1=O)C[C@H]1[C@H](CO)[C@@H](C(=O)NCc3ccccc3)[C@@H]2N1C (mixture of isomers) | 3.3 | -3.4 | -0.1
CS(=O)(=O)N1C[C@@H]2N[C@H](C1)[C@@H]2c1ccc(-c2ccccc2)cc1 | -12.6* | -38.1* | -50.6*
N#C[C@H]1[C@@H](c2ccc(-c3cccc(F)c3)cc2)[C@@H](CO)N1S(=O)(=O)c1cccc(F)c1 | 0.7 | -0.8 | -0.2
COc1ccc(NC(=O)N(C)C[C@H]2OCCCC[C@@H](C)Oc3ccc(NC(=O)CCCN(C)C)cc3C(=O)N([C@@H](C)CO)C[C@H]2C)cc1 | 0.2 | 1.4 | 1.6
CCCC(=O)Nc1ccc2c(c1)OC[C@@H](C)N(Cc1cncnc1)C[C@@H](C)[C@@H](OC)CN(C)C2=O | 6.5 | -4.9 | 1.6

Structural class, the entries above containing a Cl atom.
SMILES | DUX4 txn inh control | DUX4 txn inh difference | DUX4 txn inh
C[C@@H]1CCCCO[C@@H](CN(C)S(=O)(=O)c2ccc(Cl)cc2)[C@H](C)CN([C@@H](C)CO)C(=O)c2cc(NC(=O)Nc3ccc(C(F)(F)F)cc3)ccc2O1 | 7.9 | -5.1 | 2.8
C[C@@H]1CN([C@H](C)CO)C(=O)c2cccc(NS(=O)(=O)c3ccc(F)cc3)c2O[C@@H]1CN(C)Cc1ccc(Cl)c(Cl)c1 | -0.8 | -3.9 | -4.7
COc1ccccc1NC(=O)Nc1ccc2c(c1)OC[C@@H](C)N(Cc1ccccc1Cl)C[C@@H](C)[C@H](OC)CN(C)C2=O | x | x | u

(next part)
SMILES | DUX4 txn inh control | DUX4 txn inh difference | DUX4 txn inh
COc1ccc2c3c(n(C)c2c1)[C@@H](CO)NCC31CCN(Cc2ccncc2)CC1 | 5.4 | -3.6 | 1.8
COCC(=O)N1CC[C@@H]2[C@H]1c1cc(C#Cc3ccc(OC)cc3)ccc1N[C@@H]2CO | 17.6* | -35.7* | -18.1*
C[C@@H]1CCCCO[C@H](CN(C)Cc2ccc3c(c2)OCO3)[C@H](C)CN([C@H](C)CO)C(=O)c2cc(NC(=O)CCC(F)(F)F)ccc2O1 | 3.1 | 1.2 | 4.4
COc1ccccc1C#Cc1cnc2c(c1)C(=O)N([C@H](C)CO)C[C@@H](C)[C@@H](CN(C)C(=O)CN(C)C)O2 | -13.0 | 14.7 | 1.7
O=C(Cc1ccncc1)N1C[C@@H]2N[C@H](C1)C2c1ccc(-c2cccc(F)c2)cc1 (some centres not stated) | -10.9 | 10.1 | -0.9
C[C@H]1CN([C@@H](C)CO)C(=O)c2ccccc2-c2ccccc2CO[C@H]1CN(C)C(=O)c1cc(Cl)cc(Cl)c1 | x | x | u
N#C[C@@H]1[C@@H](c2ccc(/C=C/c3ccccc3)cc2)[C@@H](CO)N1C(=O)C1CCCC1 | 2.7 | -2.5 | 0.3
CCCC#Cc1ccc([C@H]2[C@H]3CN(S(C)(=O)=O)CCCCN3[C@H]2CO)cc1 | 12.1 | 5.2 | 17.3
O=C(C[C@H]1C[C@@H]2c3cc(NC(=O)NC4CCCC4)ccc3O[C@@H]2[C@@H](CO)O1)NCCN1CCCCC1 | 7.5 | -3.0 | 4.5
O=C(NC[C@H]1[C@H](c2ccccc2)[C@H](CO)N1C(=O)Cc1ccncc1)C1CCC1 | 0.1 | 1.9 | 2.0
CN1C(=O)c2cc(NC(=O)c3cccs3)ccc2OC[C@@H]2O[C@@H](CC(=O)NCC3CC3)CC[C@H]21 | -0.2 | 1.8 | 1.6
O=C(C[C@@H]1C[C@H]2c3cc(NC(=O)Nc4ccc(C(F)(F)F)cc4)ccc3O[C@H]2[C@@H](CO)O1)NCc1ccc2c(c1)OCO2 | -5.8 | 1.6 | -4.1
COc1ccc(CN2CC3(CN(C(=O)C4CCC4)C3)c3c(n(C)c4cc(OC)ccc34)[C@H]2CO)cc1 | x | x | u
